Bioassay records as filed in PubChem.
S aureus helic – S. aureus DNA helicase inhibition; inhibition, %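 (tested at about 80 µM)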; purified S. aureus helicase, fluorescence unwinding assay; about half of the hits fall short of the stated cut; hit rate 0.05% among 120,000;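 active = both duplicates at 50% or more, or one of them with a favoured structure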;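 note: 0% = mean of negative control wells and 100% = mean of positive control wells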
MgrA-DNA mod – alters Staphylococcus aureus MgrA binding to DNA. hit rate 0.13% among 84,000. AID 602314. inhibition, %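 (about 10 µg/mL by stock and volumes)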. fluorescence polarization;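 active = above 50% in either of two replicates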;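 note: 0% = protein plus DNA without compound and 100% = DNA alone without protein; higher means less MgrA bound to DNA so lower polarization; one replicate is shown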
Numbers without * were called inactive; . = no result given. A portion of the library; the hit share may differ from the screen's.

SMILES | S aureus helic | MgrA-DNA mod
O=C(c1cccnc1Nc1cccc(Cl)c1)N1CCCCC1 | 3.0 | 3.6
COCC(C)NC(=S)Nc1ccc(F)cc1 (stereo not drawn) | 12.0 | .
Oc1ccc(-c2nnc(SCC3CCCCC3)o2)cc1 | 0.0 | 0.9
O=c1cnnc(NC2CCCCC2)[nH]1 | 23.0 | .
CN(C)c1cc(NCCN2CCCCC2)c2c3c(onc13)-c1ccccc1C2=O | -120.0 | .
Cc1cc(C)c2c(=O)n(CC(=O)NCCc3ccc(Cl)cc3)sc2n1 | 14.0 | 7.7
CC1(C)CC(=O)C(C=NC23CC4CC(CC(C4)C2)C3)=C(O)C1 | 14.0 | 0.7
O=C(Cn1ncc2c3ccccc3n(Cc3ccccc3F)c2c1=O)NC1CC1 | -13.0 | .
Cn1c(SCc2cc(=O)[nH]c(C(C)(C)C)n2)nnc1C(F)(F)F | . | -1.5
COc1ccc(CC(=O)Nc2nccs2)cc1OC | -6.0 | 0.8
Cc1cc2ccccn2c1C(=O)c1ccco1 | 24.0 | .
CCOC(=O)c1ccc(NC(=O)Cn2ncc3ccccc32)cc1 | -1.0 | .
Cc1cc(S(=O)(=O)N2CCC(NC(=O)Cc3ccccc3)CC2)c(Cl)cc1Cl | . | -0.2
COc1ccc(CN2C(=O)C(O)(CC(=O)c3ccc4c(c3)OCO4)c3ccccc32)cc1OC (stereo not drawn) | 24.0 | 1.7
Cc1ccn2c(=O)cc(CSc3nnc(-c4cccs4)n3C3CC3)nc2c1 | -9.0 | .
COc1ccc(C(=O)OCc2nnc(-c3ccccc3)o2)cc1S(=O)(=O)Nc1ccc(C)cc1 | -4.0 | .
O=C(O)COc1ccccc1/C=N/NC(=O)C1CC1 | 7.0 | .
COc1ccc(N2CCN(C(=O)c3sc4ncn(CC(=O)N5CCCCC5)c(=O)c4c3C)CC2)cc1 | 9.0 | .
COc1ccc(C2C(C(=O)NCc3ccccn3)c3cc(OC)c(OC)cc3C(=O)N2C)cc1OC (stereo not drawn) | 14.0 | .
Cc1ccccc1Nc1ncc(-c2cccs2)s1 | -8.0 | .
Cc1ccc(C)n1-c1ccc(NC(=O)c2ccccc2)cc1 | 4.0 | 0.1
O=C(Nc1ccc2c(c1)OCCO2)c1ccc2nccnc2c1 | . | -0.2
CC(C)=CC(=O)CC(O)(c1ccccc1)c1ccccc1 | 13.0 | 1.6
CCOC(=O)c1ccc2c(c1)c(C)c(C)n2Cc1ccccc1 | 13.0 | -0.2
Cc1ccc(C(=O)Cn2nnc(-c3ccccc3Cl)n2)cc1 | 0.0 | -0.3
C[N+](C)(CCCOc1ccccc1)c1ccccc1 | . | 0.1
CCOC(=O)N1CCN(C(=O)c2ccc(NS(=O)(=O)c3ccccc3)cc2)CC1 | 4.0 | -3.7
O=C(Nc1ccc(-c2cc3ccccc3o2)cc1)C1CC1 | 3.0 | -3.2
O=C(NCc1nc(-c2ccc(C(F)(F)F)cc2)no1)c1ccccc1C(F)(F)F | -17.0 | .
CCNC(=O)OCCC12CC3CC(CC(C3)C1)C2 | 14.0 | .

Five entries picked at random from the list so far, as already listed:
SMILES | S aureus helic | MgrA-DNA mod
Cc1ccccc1Nc1ncc(-c2cccs2)s1 | -8.0 | .
COc1ccc(C(=O)OCc2nnc(-c3ccccc3)o2)cc1S(=O)(=O)Nc1ccc(C)cc1 | -4.0 | .
Cc1ccc(C(=O)Cn2nnc(-c3ccccc3Cl)n2)cc1 | 0.0 | -0.3
O=C(c1cccnc1Nc1cccc(Cl)c1)N1CCCCC1 | 3.0 | 3.6
O=C(NCc1nc(-c2ccc(C(F)(F)F)cc2)no1)c1ccccc1C(F)(F)F | -17.0 | .

Continued.
SMILES | S aureus helic | MgrA-DNA mod
COc1cc(S(=O)(=O)N(CC(=O)Nc2c(C)cccc2C)CC2CCCO2)ccc1-n1cnnn1 (stereo not drawn) | 4.0 | -0.7
CC1=NOC(=O)/C1=C/c1ccc(N2CCOCC2)cc1 | 19.0 | 2.4
COC(=O)C1=C(C)N(Cc2ccccc2)C(=O)NC1c1ccccc1 (stereo not drawn) | 4.0 | .
CCSc1nnc2[nH]c(=O)c(C)c(C)n12 | 7.0 | .
N#CCCNCc1ccco1 | -26.0 | .
CCOc1cc(C2NC(=O)NC(C)=C2C(=O)OCc2ccc3c(c2)OCO3)ccc1O (stereo not drawn) | . | 0.7
CC(C)(C)OC(=O)N1CCC(CNC(=O)c2ccno2)CC1 | . | -2.7
Cc1sc2ncnc(Sc3ncnc4sccc34)c2c1C | 7.0 | .
N#Cc1cc(Cl)c2c(c1)OCCO2 | 3.0 | .
NC(=O)C1CCN(CC(O)COc2ccc3c(c2)OCO3)CC1 (stereo not drawn) | . | -0.1
Cc1cccc(NC(=S)N2CCOC2c2ccsc2)c1 (stereo not drawn) | . | 1.6
O=C1C2(c3ccccc3)CN(CCCO)CC1(c1ccccc1)CN(CCCO)C2 | -13.0 | 0.6
Cc1cc(C)c(C(=O)COC(=O)C2=NNC(=O)CC2)c(C)c1 | -4.0 | .
CCc1ccc2c(c1)C(NC(C)=O)C(=O)N2C (stereo not drawn) | -3.0 | 1.8
Cc1onc(-c2ccccc2Cl)c1C(=O)N1CCN(C)CC1 | 5.0 | -0.2
CCOc1ccccc1N1CCN(CC(=O)Nc2ccc3c(c2)OC(F)(F)O3)CC1 | -17.0 | .
C=CCc1ccccc1Oc1cc(OC)nc(N)n1 | 12.0 | -0.4
CCOC(=O)C1CCN(S(=O)(=O)c2cccs2)CC1 | 14.0 | .
C=CCSc1nc2c(c(=O)n1C1CCOC(C)(C)C1)C1(CCCCC1)Cc1ccccc1-2 (stereo not drawn) | . | -0.4
Cc1nnc(SCC(=O)NC2CCCCC2)[nH]c1=O | -13.0 | -1.3
C=CCN1C(=O)SC(CC(=O)Nc2ccccc2)C1=O (stereo not drawn) | 4.0 | -0.5
COc1ccc(NC(=O)C2CCCCN2/N=C/c2ccc(OC)c(OCC(C)C)c2)cc1OC (stereo not drawn) | 10.0 | -1.1
Cc1csc2c(N(C)C)ncnc12 | . | -1.1
COC(=O)C1C(=O)NC(SCc2ccccc2Cl)=C(C#N)C1c1ccc(C)cc1 (stereo not drawn) | 2.0 | .
C=CCC(c1ccco1)N(C(C)=O)c1ccccc1 (stereo not drawn) | 6.0 | .
O=C(O)c1ccc(C(=O)O)s1 | . | -5.3
CC(=O)N1Cc2ccccc2CC1C(=O)OCc1ccc(C#N)cc1 (stereo not drawn) | -10.0 | .
Cc1cc(N2CCN(C)CC2)nc2ccc(NC(=O)C3CCC(C(C)(C)C)CC3)cc12 (stereo not drawn) | 12.0 | -0.5
CSc1cccc(NS(=O)(=O)c2ccc3[nH]cc(C(=O)N(C)CCC#N)c(=O)c3c2)c1 | -31.0 | .
CCN1CCN(C(c2cccs2)C(C)NC(=O)c2ccc(N(C)C)cc2)CC1 (stereo not drawn) | -5.0 | .
CCN1CCN(CCNC(=O)c2ccc(CS(=O)c3ccccc3C)o2)CC1 (stereo not drawn) | 13.0 | .
CCOc1ccsc1C(=O)OC | . | -1.1
O=C(NCc1ccccc1)C1C2CCCCC21 (stereo not drawn) | 9.0 | 0.6
COc1ccc(C(=O)O)cc1S(=O)(=O)N(C)c1ccccc1 | 8.0 | 0.7
O=C(CN(Cc1ccccc1)S(=O)(=O)c1ccccc1)NC1=NCCS1 | 2.0 | .
Cn1nc(C(F)(F)F)c(-c2ccc(Br)cc2)c1NC(=O)c1ccco1 | -16.0 | .
O=C1S/C(=C/c2ccc(F)cc2)C(=O)N1CN1CCCCC1 | -25.0 | .
CCOC(=O)C(C)Oc1ccc2c(=O)c(-c3csc(C)n3)coc2c1 (stereo not drawn) | 3.0 | -0.2
O=C(O)CC(Sc1cccs1)C(=O)O (stereo not drawn) | 1.0 | -0.2
Cc1ccc(CSCC(=O)Nc2ccccc2)cc1 | 11.0 | -1.2
CC(=O)N1CCN(C(=O)c2cn(-c3ccccc3)nc2-c2ccc(C)cc2)CC1 | -22.0 | 0.1
O=C(O)/C=C/c1ccc(S(=O)(=O)Nc2cccc(C(=O)O)c2)cc1 | -12.0 | 1.4
CC1Cc2ccccc2N1CC(=O)NCc1cccs1 (stereo not drawn) | 0.0 | .
CN(C)S(=O)(=O)N(C)Cc1ccccc1 | -1.0 | .
COc1ccccc1N1CCNCC1=O | -4.0 | 0.0
Nc1c(Sc2ccccc2)cc(Sc2ccccc2)c2c1C(=O)c1ccccc1C2=O | . | -1.6
O=C(CCSc1nnc(-c2ccccc2)o1)Nc1ccc(F)cc1 | 8.0 | -0.2
Oc1ccccc1-c1csnn1 | . | 0.8
Cc1c(NC(=O)c2cnn3c2NC(c2ccc4c(c2)OCO4)CC3C(F)(F)F)c(=O)n(-c2ccccc2)n1C (stereo not drawn) | . | -1.0
O=c1c(Cl)c(N2CCCCC2)cnn1-c1ccccc1 | 6.0 | 1.1
CCOc1ccccc1N(C)C(=O)Cc1noc2ccccc12 | -16.0 | .
COc1cccc(-c2nnc(-c3ccc(C)o3)o2)c1 | 5.0 | -2.1
COc1cccc(C(=O)Nc2cccc(-c3nc4ncccc4o3)c2)c1 | -2.0 | .
CCC1(c2cccc(OC(=O)Nc3ccc(OC(F)(F)F)cc3)c2)CCCCN(C)C1=O (stereo not drawn) | . | -1.2
Cc1ccsc1Cn1c(C)ccc1C | . | 1.5
CCOC(=O)c1ccc2nc(C(F)(F)F)nc(NCCCN3CCOCC3)c2c1 | -2.0 | .
COC(=O)c1cc(-c2ccc(Cl)cc2)on1 | -7.0 | -1.4
N#Cc1ccc(-c2cccnc2)n(CC(=O)NCc2ccccc2)c1=O | -5.0 | -1.4
Cc1ccccc1NC(=O)Cc1nnc(SCC(=O)c2ccccc2)n1C | 6.0 | -11.3
Cc1cc(C)c2c(n1)SCCN2C(=O)Nc1ccc(C(=O)N2CCCCC2)cc1 | -19.0 | .

(further entries)
SMILES | S aureus helic | MgrA-DNA mod
COc1ccc(-c2cc(=O)oc3cc(O)c(Cl)cc23)cc1 | 18.0 | 1.7
CC(c1ccccc1)n1cnc2cc(N)ccc21 (stereo not drawn) | -5.0 | 1.4
Cc1ccc(/C=C/C(=O)Nc2ccccc2C(F)(F)F)c(C)c1 | 18.0 | -4.9
COc1nc(N)nc(C(C)C)n1 | . | -0.4
Nc1nonc1C(=O)NN=c1c(=O)c2ccccc2c1=O | . | 6.8
O=S(=O)(NNc1ccc(F)cc1F)c1ccc(Cl)cc1 | -37.0 | .
C=CCC1CC(=O)N(c2ccc(Cl)cc2)C1=O (stereo not drawn) | -19.0 | .
O=C(O)C1C2C=CC(C2)C1C(=O)NC1CCN(Cc2ccccc2)CC1 (stereo not drawn) | 6.0 | 1.1
CC(=O)Nc1ccccc1C(=O)C(=S)N1CCN(C)CC1 | 15.0 | .
O=c1[nH]c(=S)n(-c2cccc3ccccc23)c(O)c1/C=C1\C=Nc2ccccc21 | 5.0 | 15.2
COc1ccc2cc(-c3nc(N)ncc3C)ccc2c1Br | . | 1.8
Cc1cccc(C)c1NC(=O)c1snnc1C | . | -0.6
COc1ccc2[nH]c3c(=O)n(CCN4CCC(Cc5ccccc5)CC4)cnc3c2c1 | 16.0 | 0.8
COc1ccc(N2C(=O)CC(N3CCCCC3C)C2=O)cc1 (stereo not drawn) | -14.0 | 2.4
Cc1ccc(NC(=O)CSc2ncccn2)c(S(=O)(=O)N2CCCCC2)c1 | -7.0 | .
Cc1ccc(SCCNC(=O)c2ccc3ccccc3n2)cc1 | 8.0 | -4.8
COc1ccc2oc(C(=O)OCC#N)c(C)c2c1 | -8.0 | .
O=C(COc1ccccc1F)NN1C(=O)NC2(CCCCC2)C1=O | -5.0 | .
CC(OC(=O)c1cccnc1)C(=O)Nc1ccc2c(c1)OCO2 (stereo not drawn) | -6.0 | .
O=C(NC1CCCCC1)C(c1ccccn1)N(C(=O)Cn1nnc(-c2ccccc2)n1)c1ccc2c(c1)OCO2 (stereo not drawn) | 0.0 | 2.8
COC(=O)Cc1nc(-c2ccccc2)oc1C | . | -0.5
CC(=O)NCc1ccc(C(=O)CSc2nc(C)nc3scc(-c4cccs4)c23)o1 | 8.0 | .
CCOC(=O)c1cnn(-c2ccc(F)cc2F)c1C | . | -1.7
Cc1c(NC(=O)c2nn3c(c2Cl)NC(c2ccco2)CC3C(F)(F)F)c(=O)n(-c2ccccc2)n1C (stereo not drawn) | . | 3.0
Cc1ccc(OCC(=O)O)c(C)c1 | 3.0 | 1.0
Cc1cc2ccccc2n1CCNS(=O)(=O)c1ccccc1 | -19.0 | .
CC(C)(C)c1cc2nc(-c3ccc4c(c3)OCO4)cc(C(F)(F)F)n2n1 | . | -0.9
CC1C/C(=C/c2ccncc2)C(=O)/C(=C/c2ccncc2)C1 (stereo not drawn) | 11.0 | -6.3
CC(C#N)OC(=O)c1c(-n2cccc2)sc2c1CCCC2 (stereo not drawn) | -6.0 | .
C=CCOc1c(CNc2ccc(C(=O)O)cc2)cccc1OCC | 12.0 | 0.7

Reprinted from the part before: 2 compounds; new compounds follow.
SMILES | S aureus helic | MgrA-DNA mod
CC(C#N)OC(=O)c1c(-n2cccc2)sc2c1CCCC2 (stereo not drawn) | -6.0 | .
C=CCOc1c(CNc2ccc(C(=O)O)cc2)cccc1OCC | 12.0 | 0.7
Cc1ccc(S(=O)(=O)CCN2C(=O)CSC2=O)cc1 | . | -2.9
Cc1cccc2[nH]ncc12 | 15.0 | .
C=CCn1c(C)cc(C(=O)COC(=O)C2C(C(=O)OCC)=C(C)NC(C)=C2C(=O)OCC)c1C | -17.0 | .
CSc1ccccc1NC(=O)CSc1nccn1C | -11.0 | -1.4

One compound at a time (already shown). Order of screens: S aureus helic, MgrA-DNA mod
`Cc1cccc2[nH]ncc12` reads 15.0, .
`C=CCn1c(C)cc(C(=O)COC(=O)C2C(C(=O)OCC)=C(C)NC(C)=C2C(=O)OCC)c1C` reads -17.0, .
`Cc1ccc(S(=O)(=O)CCN2C(=O)CSC2=O)cc1` reads ., -2.9
`CSc1ccccc1NC(=O)CSc1nccn1C` reads -11.0, -1.4
